Screening results (PubChem)
gsp ag: qHTS for Agonist of gsp, the Etiologic Mutation Responsible for Fibrous Dysplasia/McCune-Albright Syndrome: qHTS. gsp mutant cells, cAMP HTRF, 30 min; control for the full effect not named in the record. Potency, µM (doses to about 76.9 µM), for the others: at the highest dose activation (cAMP increase), usual class: activators. 340,000 tested, 0.13% active. AID 624287, 2012; active = well fitted activation curve with a large enough effect; inconclusive = small, poorly fitted or top-dose-only effect, or another doubt; inactive = no such curve, though single readings can be large or run the other way; cell line not stated here;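 note: phosphodiesterase inhibitor Ro 20-1724 added with compounds to block cAMP breakdown; potency is the fitted concentration of half-maximal effect; nearly all actives have a fitted effect of over 60% in size; about a fifth of the inactives were tested at one dose only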
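Cells in DMEM/10% FBS with G418 were pretreated with compounds in DMSO plus […] (300 uM stock) for 30 min at 37C. cAMP was measured by HTRF (cAMP-d2 plus anti-cAMP antibody-K) after 30 min at room temperature.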
Menin-MLL FL inh: qHTS Assay for Inhibitors Targeting the Menin-MLL Interaction in MLL Related Leukemias: Competition With Fluorescein Labeled MLL-derived Peptide | 290,000 tested, under 10 active | FP activity change, % at 61.4 µM | Fluorescence polarization, fluorescein-MLL peptide displacement from menin; inconclusive = falling polarisation curve, or a change in total fluorescence; inactive = total fluorescence flat and polarisation flat or rising; no compound was filed as active; the % refers to the polarisation; negative = inhibition;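 note: % of control where 0% means no effect; inhibitors lower the polarisation; unlabelled MLL peptide was the positive control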
PINK1 expr mod: A Quantitative High throughput Screen to Identify Chemical Modulators of PINK1 Expression; Potency, µM (titrated, usually from 76.6 µM), inactives show at the top dose activation (PINK1 increase), actives largely listed as activators; 410,000 tested, 0.2% active; PINK1 immunofluorescence, high-content cytometry, 24 h; active = well fitted activation curve with a large enough effect; inconclusive = small, poorly fitted or top-dose-only effect; inactive = flat fitted curve, though single readings scatter; cell line not stated here;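 note: potency is the fitted concentration of half-maximal effect; % of control where 0% means no effect; nearly all actives have a fitted effect of over 65% in size; a mitochondrial uncoupler was the plate control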
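PINK1 protein, normally rapidly degraded, was detected by immunofluorescence after 24 hour compound treatment of a stable cell line. Titration data (5 concentrations) came from laser-scanning cytometry, with CCCP-treated wells as controls.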
D2 ag: Beta-Arrestin HTS for Positive Allosteric Modulators of the Human D2 Dopamine Receptor: Agonists; D(2) dopamine receptor (Homo sapiens), P14416; DiscoveRx PathHunter D2 beta-arrestin, luminescence, 90 min; 100% = 57 uM dopamine signal; activation, % (concentration not given with the values); 360,000 tested, 0.084% active; AID 624465, 2012; in the data active = activation above about 40%; inconclusive = about 15% to 40%; inactive = below about 15%; note: compound concentration not given in the record; the text of the record calls up to 30% inactive
Target sequence (P14416 whole entry, looked up): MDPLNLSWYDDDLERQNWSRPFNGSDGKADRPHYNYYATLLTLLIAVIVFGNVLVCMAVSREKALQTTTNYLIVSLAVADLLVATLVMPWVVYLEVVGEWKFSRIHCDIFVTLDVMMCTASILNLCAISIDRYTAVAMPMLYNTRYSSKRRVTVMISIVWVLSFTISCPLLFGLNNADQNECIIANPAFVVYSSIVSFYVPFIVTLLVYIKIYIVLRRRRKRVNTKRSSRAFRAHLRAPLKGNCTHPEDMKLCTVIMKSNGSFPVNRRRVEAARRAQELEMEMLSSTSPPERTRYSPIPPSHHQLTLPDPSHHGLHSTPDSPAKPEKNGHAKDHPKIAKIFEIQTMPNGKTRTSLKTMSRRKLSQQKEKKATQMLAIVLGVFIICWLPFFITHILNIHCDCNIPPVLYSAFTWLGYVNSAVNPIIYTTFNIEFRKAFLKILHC
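Agonist mode: compounds alone added to overnight-plated D2 PathHunter cells for 90 min at 37 C, with 57 uM final dopamine (EC100) defining full response. Beta-arrestin recruitment detected by chemiluminescent reagent, read after 1 h at ambient temperature.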
ClpP mod: qHTS Assay for Activators of ClpP. 340,000 tested, 1.9% active. Potency, µM (doses to about 57.5 µM), for inactives: at the highest dose activity change, negative = active. purified B. subtilis ClpP, FRET peptide cleavage, 20 min; active = well fitted falling curve with a large enough effect; inconclusive = small, poorly fitted or top-dose-only effect; inactive = no such curve, though single readings can be large or run the other way; note: potency is the fitted concentration of half-maximal effect; the source files actives as falling curves though it sought activators and does not explain the sign; nearly all actives have a fitted effect of over 65% in size; many hits overshoot -100%
Target sequence (P80244 whole entry, looked up): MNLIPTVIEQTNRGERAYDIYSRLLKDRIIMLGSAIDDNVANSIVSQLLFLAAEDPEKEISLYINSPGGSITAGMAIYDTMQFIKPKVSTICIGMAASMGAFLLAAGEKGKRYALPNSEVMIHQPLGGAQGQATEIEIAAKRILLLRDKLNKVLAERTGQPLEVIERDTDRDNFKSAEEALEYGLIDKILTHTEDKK
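Buffer: 100 mM Tris/HCl pH8, 100 mM KCl, 0.05% low protease BSA, 2.5% glycerol, 0.01% Tween-20. ClpP 10 microg/mL final; 20 min RT; delta FRET normalized to ADEP and DMSO controls.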
gsp antagonist: qHTS for Antagonists of gsp, the Etiologic Mutation Responsible for Fibrous Dysplasia/McCune-Albright Syndrome: qHTS; gsp-mutant cells, cAMP HTRF, 30 min; control for the full effect not named in the record; Potency, µM (top dose mostly 76.9 µM), for inactives: top-dose activity change, negative = inhibition, most hits filed as inhibitors; 340,000 tested, 0.4% active; AID 624288, 2012; active = falling curve of any shape with a large fitted effect; inconclusive = falling curve, mostly with a smaller effect; inactive = flat or rising curve; cell line not stated here;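 note: intracellular cAMP measured with PDE inhibitor Ro 20-1724 present during compound exposure; potency is the fitted concentration of half-maximal effect; % is set by controls: 0 for no effect and ±100 for the full control effect; nearly all actives have a fitted effect of over 65% in size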
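Cells in G418 medium, seeded 16-24 h, 37C; buffer exchange to DPBS + 1 mM CaCl2, 0.5 mM MgCl2, 0.05% BSA; cpds in DMSO + […] (300 uM stock), 30 min 37C; HTRF cAMP detection.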
Sfp inh: qHTS Assay for Inhibitors of Bacillus subtilis Sfp phosphopantetheinyl transferase (PPTase) | 4'-phosphopantetheinyl transferase ffp (Bacillus subtilis), Q9F4F7 | Biochemical Sfp PPTase activity, qHTS | 310,000 tested, 3.5% active | AID 1490, 2009 | Potency, µM, without a hit: max response, negative = inhibition, hits mostly inhibitors; active = well fitted inhibition curve with a large enough effect; inconclusive = small, poorly fitted or top-dose-only effect, or another doubt; inactive = no such curve, though single readings can be large or run the other way;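 note: the enzyme is Sfp with the accession as filed and its product quenches rhodamine fluorescence; potency is the fitted concentration of half-maximal effect; 0% = enzyme reaction without inhibitor and -100% = no enzyme wells; top concentration of the series not given in the record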
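Fluorescence-quenching assay with 15 nM Sfp, 5 uM rhodamine-CoA and 12.5 uM BHQ-2-labelled ybbR peptide in pH 7.6 Hepes/MgCl2 buffer. Enzyme was pre-incubated with compound for 15 min at room temperature. Rate was taken from the 30-min fluorescence change (525/598 nm).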
Active calls of the source: *; ? = inconclusive; / = not tested or not shown; [ ] = another dose, or the depositor's remark.

Structure	gsp ag	Menin-MLL FL inh	PINK1 expr mod	D2 ag	ClpP mod	gsp antagonist	Sfp inh
CCCCCOC(=O)c1ccccc1C(=O)O	14%	-0.5	-0.9%	-4.2	2.7%	7%	-14%
Cc1ccc(-c2nc3ncccc3o2)cc1NC(=O)CC(C)C	5%	-1.6	0.2%	0.3	11µM*	15%	3%
CCCCN(CC)Cc1ccc(CNC(=O)Nc2ccc(OC)cc2OC)o1	13%	5.1	1.6%	-2.3	-0.7%	4%	12%
CC12CCC(C(N)=O)(C1Br)C2(C)C (configuration not stated)	0%	1.6	-2.2%	-0.9	1.4%	0%	-4%
CCC(=O)Nc1ccc(N2CCN(C(=O)c3cccs3)CC2)cc1	3%	0.3	0.3%	4.6	-1.3%	-21%	-1%
O=C(Nc1ccc(C(=O)N2CCCC2)cc1)C1CCC1	/	/	-1.5%	-1.7	-1.1%	-1%	/
O=C(Nc1ccc(-n2cc(Br)cn2)cc1)c1ccncc1	?	0.0	1.5%	2.5	-1.5%	7%	2%
COc1ccc(CC(=O)N2CCN(c3ccccn3)CC2)cc1	6%	5.1	-2.6%	-0.7	20µM*	-2%	-2%
Cc1ccc(N2CC(C(=O)N3CCC(C(=O)NCCCOC(C)C)CC3)CC2=O)cc1 (configuration not stated)	7%[15.4 µM]	8.2	2.2%	-9.6	0.4%	12%	22%
COC(=O)c1ccccc1NC(=O)COc1ccccc1	-14%	1.2	11%[38.3 µM]	1.1	-8.9%	-20%	-13%
O=C(NCCc1ccc(F)cc1)C1CCCCC1	-5%[15.4 µM]	2.5	3.0%	-2.9	/	?	-6%
COc1ccc(-c2nc(CNS(=O)(=O)c3ccc(OC)c(OC)c3)cs2)cc1	1%	0.2	-1.0%	0.0	-7.6%	-9%	15%
CC1CN(S(=O)(=O)c2cccc(C(=O)Nc3ccc4c(c3)CCC4)c2)CC(C)O1 (configuration not stated)	-1%[15.4 µM]	-1.4	3.7%	-2.1	-1.4%	?	-17%
COc1ccc(/C=C/C(=O)Nc2ccccc2C)cc1S(=O)(=O)N1CCOCC1	-2%	1.4	2.2%	0.9	1.9%	?	22%
O=C(NC1CCCCC1)c1cccs1	2%	1.4	-2.7%	-0.6	2.5%	8%	6%
CCCN(CCO)Cc1ccc2ccccc2c1	3%	-2.5	0.7%[38.3 µM]	-1.3	0.3%	2%	12%
CCc1nc2c(OCc3ccc(Cl)cc3Cl)cccn2c1N(C)C(=O)C(C)C	/	/	-1.2%	3.0	1.4%	/	/
Cc1c(C(=O)Nc2c(C)n(C)n(-c3ccccc3)c2=O)oc2c(Cl)cccc12	3%[15.4 µM]	/	2.0%	0.0	2.0%	7%	12%
NCC(O)CN1CCN(Cc2ccccc2)CC1 (configuration not stated)	-2%	-6.7	1.5%	-6.1	/	1%	-9%
N#CCc1ccc(NC(=O)c2cc(S(=O)(=O)N3CCOCC3)ccc2Cl)cc1	-11%	/	-1.5%	-0.1	-1.8%	2%	29%
CCCC(=O)C1C(=O)CC(C)(C)C(c2cc(C)no2)C1=O (configuration not stated)	?	-0.1	-1.8%	3.4	-1.0%	4%	1%
COc1ccc(Cl)c(-c2cc(C(=O)NCc3ccco3)[nH]n2)c1	/	/	1.9%	-3.1	-0.6%	/	/
CCOC(=O)C1(CC)Oc2ccccc2C(c2ccc(OC)cc2)=C1C(=O)OC (configuration not stated)	/	3.5	-0.2%	-1.2	1.5%	-16%	15%
Cc1cccc(NC(=O)C(C)N2C(=O)c3ccccc3S2(=O)=O)n1 (configuration not stated)	-1%	/	-1.2%	-2.6	-1.8%	4%	/
O=C(N/N=C1\CCc2ccccc21)c1ccccc1O	-1%	3.4	0.2%	-6.6	0.4%	5%	-9%
CCOC1=C2CN(S(=O)(=O)c3ccc(C)cc3)[C@H](c3ccccc3)C[C@@H]2N(S(=O)(=O)c2ccccc2)[C@H](c2ccccc2)C1	/	/	0.1%	-1.9	0.7%	/	/
COc1ccc(CN2CCNC(=O)C2CC(=O)N(C)Cc2nc(C)cs2)c(OC)c1 (configuration not stated)	-4%	-3.1	-2.1%	-1.1	-6.7%	2%	5%
CCc1ccc(/C=C2/SC(=S)N(CCCC(=O)Nc3cccc(C(=O)O)c3)C2=O)cc1	?	/	2.5%	-2.8	-1.9%	/	/
CC(C)c1ccc(/C=C/C(=O)NCCC2=CCCCC2)cc1	-15%	1.4	2.4%	2.1	-1.0%	-4%	-5%
Cn1c(=O)c2[nH]c(SCCN3CCCCC3)nc2n(C)c1=S	12%	/	0.8%	-4.7	/	-7%	/
O=C(COC(=O)Cn1cnc2ccccc2c1=O)Nc1cc(Cl)ccc1[N+](=O)[O-]	9%	-2.2	1.1%	5.5	1.1%	-10%	-13%
CCOc1ccc(N(C(C)C(=O)N2CCOCC2)S(C)(=O)=O)cc1 (configuration not stated)	-4%[15.4 µM]	2.0	-1.1%	-0.8	-1.9%	-2%	4%
C=CCC1(C(=O)N(C)Cc2ccccc2)CCN(C(=O)OC(C)(C)C)CC1	-15%	/	0.4%	-2.5	1.4%	-1%	/
CC(C)C(C(=O)Nc1nccs1)c1ccccc1 (configuration not stated)	?	2.3	4.6%	-0.1	0.3%	1%	8%
CCN(CC)S(=O)(=O)c1ccc(N2CCOCC2)c(NC(=O)CN2C(=O)NC3(CCCC3)C2=O)c1	-17%	/	1.8%	-0.2	-0.6%	8%	/
Brc1cnc(N2CCCCC2)nc1N1CCOCC1	-33%[inhibitor]	-0.4	-0.7%	-2.1	-2.4%	2%	-9%
O=C(NC(=S)NCc1ccccc1)c1cccs1	-1%	/	1.0%	-3.6	-2.1%	2%	12%
CCCCN(C(=O)CSc1ncn[nH]1)c1c(N)n(Cc2ccccc2)c(=O)[nH]c1=O	9%	/	-0.2%	-1.1	-0.2%	18%	/
CCCCc1nnc(NC(=O)C(C)Sc2nc(N)cc(=O)[nH]2)s1 (configuration not stated)	?	5.8	5.6%[38.3 µM]	-3.8	-1.2%	3%	16%
CC(=O)c1ccc(NC(=S)Nc2ccn(Cc3ccc(Br)cc3)n2)cc1	9%[15.4 µM]	1.0	5.7%	4.9	/	/	-5%
COc1ccc(-c2noc(CN(C)C(=O)c3ccoc3C)n2)cc1OC	-3%	0.4	-2.5%	-4.5	/	7%	10%
CC1CCc2cc(F)ccc2N1C(=O)CSc1nnc2c3cc(F)ccc3n(C)c2n1 (configuration not stated)	?	-0.4	2.8%	0.3	/	-7%	11%
CCn1c(=N)n(CC(=O)c2cccc(OC)c2)c2ccccc21	13%	-2.1	3.4%	-3.5	-9.7%	7%	?
CCn1c([N+](=O)[O-])nc2c1c(=O)[nH]c(=O)n2C	-58%[inhibitor]	-3.4	-1.3%	?	-0.5%	8%	-5%
COc1ccc(N2CSC3=C(C#N)C(c4cccs4)CC(=O)N3C2)cc1 (configuration not stated)	-2%	?	5.3%[38.3 µM]	-2.7	-0.9%	7%	2.2µM*
CCC(Sc1ccccn1)C(=O)Nc1cccc([N+](=O)[O-])c1 (configuration not stated)	-6%[15.4 µM]	0.4	-0.1%	-2.1	/	-7%	56µM*
CCN(CC)S(=O)(=O)c1ccc(Cl)c(C(=O)NCC2CCCO2)c1 (configuration not stated)	3%	0.0	1.3%[38.3 µM]	-0.1	-2.1%	3%	9%
CCCCCOc1ccc(CSc2ncn[nH]2)cc1	1%	1.9	25%[38.3 µM]	1.0	0.0%	-14%	-2%
CC(=O)c1c(C)[nH]c(C(=O)COC(=O)C2(C)CC2(Cl)Cl)c1C (configuration not stated)	?	/	1.0%	5.2	1.4%	?	/
C=CCNc1ncnc2c1ncn2[C@H]1CN(Cc2ccccc2)C[C@@H](COC(C)=O)O1	/	/	1.3%	-1.5	-5.0%	/	/
O=C(Nc1ccc(F)cc1)C1COc2ccccc2O1 (configuration not stated)	32%	-0.3	-1.7%	2.5	-0.7%	6%	4%
CN(C)c1nc(SCC(=O)Nc2ccc(Cl)c(Cl)c2)nc(N2CCOCC2)n1	-9%	3.7	5.2%	3.4	/	?	16%
CCC(=O)N(C)C[C@H]1Oc2ncc(C#Cc3cccnc3)cc2C(=O)N([C@@H](C)CO)C[C@@H]1C	-9%	/	0.8%	-1.0	-2.5%	/	/
O=C(NCCCCCc1nc2ccccc2[nH]1)c1ccccc1Cl	-21%	2.0	0.1%	-1.2	-2.3%	1%	-10%
Cc1ccc2[nH]c(O)c(N=NC(=O)C(C)n3cnc4ccccc4c3=O)c2c1 (configuration not stated)	0%	/	-1.4%	-1.0	-1.2%	11%	-8%
COc1ccc(CSc2nnc(C)n2N)cc1Br	29%	3.2	-0.2%	-1.8	-1.0%	8%	21%
N#Cc1c2c(c(Nc3ccccc3)n3c1nc1ccccc13)CCC2	29%	-1.6	14%	-2.3	-15%	8%	3%

Some entries already given, reduced to Menin-MLL FL inh and PINK1 expr mod.
SMILES	Menin-MLL FL inh	PINK1 expr mod
CC1CCc2cc(F)ccc2N1C(=O)CSc1nnc2c3cc(F)ccc3n(C)c2n1 (configuration not stated)	-0.4	2.8%
CCn1c(=N)n(CC(=O)c2cccc(OC)c2)c2ccccc21	-2.1	3.4%
